# KCNQ2 pot: KCNQ2 (rat) channel potentiation | O88943 | CHO-K1 KCNQ2, FluxOR thallium flux fluorescence; active compounds read high | B-score at 10 µM | actives 0.54% (n = 310,000) | AID 2239;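 active = fluorescence ratio B-score at least 3 SD of library B-scores, with initial fluorescence B-score within 3 SD, cut at about 5.3 in these data; same plate scores as AID 2156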;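 note: B-score of peak minus minimum over baseline fluorescence ratio after K+ and Tl+ stimulus; positive B-score means potentiation of KCNQ2 with more thallium influx and brighter signal; only the inactives scoring about 0 or higher are listed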
# Target sequence (O88943 whole entry, looked up): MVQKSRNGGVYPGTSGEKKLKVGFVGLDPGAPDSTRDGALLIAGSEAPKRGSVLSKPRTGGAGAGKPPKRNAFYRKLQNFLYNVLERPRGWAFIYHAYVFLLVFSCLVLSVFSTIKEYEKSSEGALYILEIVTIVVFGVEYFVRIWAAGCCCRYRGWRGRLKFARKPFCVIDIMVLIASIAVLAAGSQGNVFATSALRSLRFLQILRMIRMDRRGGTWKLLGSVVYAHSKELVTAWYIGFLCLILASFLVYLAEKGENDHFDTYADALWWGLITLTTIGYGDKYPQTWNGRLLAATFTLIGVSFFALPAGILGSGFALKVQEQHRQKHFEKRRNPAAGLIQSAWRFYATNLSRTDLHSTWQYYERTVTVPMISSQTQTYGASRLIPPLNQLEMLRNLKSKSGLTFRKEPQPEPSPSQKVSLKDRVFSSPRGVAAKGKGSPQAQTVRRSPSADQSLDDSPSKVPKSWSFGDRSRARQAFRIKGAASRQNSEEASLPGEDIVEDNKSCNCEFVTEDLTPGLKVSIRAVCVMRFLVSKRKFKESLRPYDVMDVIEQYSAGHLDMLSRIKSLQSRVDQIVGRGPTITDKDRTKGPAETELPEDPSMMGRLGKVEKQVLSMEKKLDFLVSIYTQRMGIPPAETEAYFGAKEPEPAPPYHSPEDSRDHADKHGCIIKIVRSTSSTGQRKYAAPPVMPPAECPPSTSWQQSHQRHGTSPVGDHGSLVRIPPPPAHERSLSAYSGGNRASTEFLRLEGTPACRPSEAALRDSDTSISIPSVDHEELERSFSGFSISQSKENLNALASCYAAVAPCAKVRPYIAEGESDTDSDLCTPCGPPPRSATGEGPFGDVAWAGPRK
# KCNQ2 pot baseline: recorded beside KCNQ2 pot, whose call it bears; B-score; compound at 10 µM; measured here: initial fluorescence intensity artifact check;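 brightness before thallium and not channel activity; 0 = typical well and far values either way flag optical interference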
# * hit, by the source's call. The list is partial. The share of hits here may be higher or lower than overall.
# Start of the listing, in advance, 3 compounds:
SMILES,KCNQ2 pot,KCNQ2 pot baseline
O=C(NCCc1nc2ccccc2[nH]1)C1CCC(=O)N(CCc2cccc(F)c2)C1 (stereo not given),0.67,-0.37
Cc1ccc(C(=O)COC(=O)CCCC(=O)Nc2cc(C(F)(F)F)ccc2Cl)cc1C,2.2,-0.02
CC(=O)NNS(=O)(=O)c1ccccc1[N+](=O)[O-],0.37,0

# All compounds of this part (from the top)
SMILES,KCNQ2 pot,KCNQ2 pot baseline
O=C(NCCc1nc2ccccc2[nH]1)C1CCC(=O)N(CCc2cccc(F)c2)C1 (stereo not given),0.67,-0.37
Cc1ccc(C(=O)COC(=O)CCCC(=O)Nc2cc(C(F)(F)F)ccc2Cl)cc1C,2.2,-0.02
CC(=O)NNS(=O)(=O)c1ccccc1[N+](=O)[O-],0.37,0
Cc1ccc(Cl)cc1N1CCN(S(=O)(=O)c2ccc(-c3ccc(=O)[nH]n3)o2)CC1,0.57,0.59
Cc1nc2ccccc2n1CC(=O)NCc1ccccc1,0.85,0.35
O=C(COC(=O)C1=COCCO1)NCCCc1ccccc1,0.2,-1.6
CCc1ccc(NC(=O)NC2CCCCCCC2)cc1,4.4,-1.2
CC(C)(CO)CNC(=O)c1ccc2nc(Cc3cccc(Cl)c3)oc2c1,1.1,-1.6
CNS(=O)(=O)c1cnccc1N1CCN(c2cccc(C)c2)CC1,1.3,-0.06
COC(=O)c1ccc(CN2CCC(CO)(Cc3ccccc3Cl)CC2)cc1,0.46,-1.7
COc1ccc(NS(=O)(=O)c2cc(NC(=O)C3CCCCC3)ccc2N2CCOCC2)cc1,0.81,1.3
COc1ccc(CCNC(=O)c2[nH]c(C)c(C(C)=O)c2C)cc1,2,1.4
C/C(=N\NC(N)=O)c1ccc(Cl)s1,1.5,-1.1
COc1ccc(C2c3[nH]c4ccccc4c3C[C@H]3C(=O)N(c4ccccc4C(=O)N4CCC(C(=O)O)CC4)C(=O)N23)cc1 (stereo not given in full),1.3,0.09
COc1cccc(NC(=O)CCN2CCN(c3ccccc3F)CC2)c1,0.6,0.36
CCOC(=O)c1c(NC(=O)C2CCN(S(=O)(=O)c3ccc(Cl)cc3)CC2)sc2c1CCCC2,0.77,0.16
Nc1nnc(C(=O)c2ccccc2N)s1,0.66,0.12
O=C(NCc1ccccc1)NCc1cccs1,1.2,-0.03
CCOC(=O)CCCNC(=O)CCNC(=O)c1ccc(OC)cc1,0.47,1.1
CN(C)S(=O)(=O)Oc1ccsc1C(=O)Nc1ccc(Cl)cc1,0.66,-1.1
COC(=O)c1sccc1NC(=S)Nc1ccc(F)cc1F,0.11,1
CC1CN(C(=O)c2c([N+](=O)[O-])cnn2C)CC(C)O1 (stereo not given),1.1,0.36
O=C(COc1ccc(Cl)cc1)N/N=C/c1cccc2cccnc12,1.4,0.85
CCS(=O)(=O)N1CCCC(C(=O)NCCN(C)Cc2ccccc2)C1 (stereo not given),0.11,0.88
CCOC(=O)C1CCN(C(=O)COc2ccc(Br)cc2Br)CC1,0.26,1
COc1ccc(-c2cc(C(=O)NCc3cn(C)nc3C)c3ccccc3n2)cc1OC,0.75,0.52
CCC12CN3CC(CC)(CN(C1)C3c1ccccc1Cl)C2O (stereo not given),0.2,0.13
O=C(Nc1nnc(/C=C/c2ccccc2)s1)c1ccco1,1.3,0.67
Cc1cc(C)cc(N(CC(=O)N2CCOCC2)S(=O)(=O)c2ccccc2)c1,0.4,0.7
CC1=N/C(=C/c2ccc([N+](=O)[O-])cc2)C(=O)N1c1ccc(Cl)cc1Cl,0.57,-0.68
Cc1ccc(Cl)cc1N1CCN(Cc2cc(=O)n3ccsc3n2)CC1,0.14,0.07
Cc1cccc(NC(=O)CSc2nc3[nH]ncc3c(=O)[nH]2)c1,0.92,-0.47
O=C(c1ccc(F)cc1)N1CCN2C(=O)c3ccccc3C12c1ccc(Cl)cc1 (stereo not given),0.08,-1.3
C/C(=N\NC(=O)c1csc(C)c1C)c1ccc(Cl)s1,0.02,1.8
COc1ccc(/C=N/OCc2nc3c4c(ncn3n2)Oc2ccc3ccccc3c2C4c2ccccc2)cc1 (stereo not given),0.16,0.7
Clc1ccc(-n2nnnc2CN2CCOCC2)cc1,0.21,-1.3
CCc1ccc(-c2cc3c(=O)n(CC(=O)NCCCN4CCN(Cc5ccccc5)CC4)nc(C)n3n2)cc1,0.65,-1.9
CC(C)(Oc1ccc(Cl)cc1)C(=O)NC1=NN(c2ccccc2)C(=O)C1,0.33,-0.78
O=C(Nc1cccc([N+](=O)[O-])c1)Nn1cnnc1,0.82,-0.56
CC(/C=C1\SC(=O)N(CCCC(=O)O)C1=O)=C\c1ccccc1,0.55,-1.1

# Ordered by molecular weight (low to high): part of the list above
SMILES,KCNQ2 pot,KCNQ2 pot baseline
COC(=O)c1sccc1NC(=S)Nc1ccc(F)cc1F,0.11,1
O=C(COc1ccc(Cl)cc1)N/N=C/c1cccc2cccnc12,1.4,0.85
Cc1cc(C)cc(N(CC(=O)N2CCOCC2)S(=O)(=O)c2ccccc2)c1,0.4,0.7

# (further entries)
SMILES,KCNQ2 pot,KCNQ2 pot baseline
CCn1c(SCC(=O)N2CC(C)OC(C)C2)nc2c([nH]c3ccccc32)c1=O (stereo not given),1.6,-1.2
C=CCc1c(C)nc2c(C)cccc2c1SC(=N)N,0.14,-0.29
COc1ccccc1NC1=C(NC(C)=O)C(=O)c2ccccc2C1=O,8*,-1*
CCN(CC)S(=O)(=O)c1cccc(C(=O)Nc2nncs2)c1,0.61,-0.01
O=C(Cc1c[nH]c2ccccc12)N/N=C/c1cccc(F)c1,0.67,1.2
CCOc1ccc(Oc2cc(N)cc([N+](=O)[O-])c2)cc1,0.16,0.14
O=[N+]([O-])c1cc(CN2CCCCCC2)ccc1O,0.02,-0.11
O=C1c2ccccc2CN2C(=O)c3ccccc3CN12,0.19,-0.15
COc1ccc(CCNC(=O)C/C(C)=N/NC(=O)c2cnccn2)cc1,0.76,0.5
COc1cc2c(cc1OC)CN(CC(O)c1ccccc1)CC2 (stereo not given),0.28,0.14
COC(=O)CN1C(=S)N(c2ccccc2)C(=O)C1CC(=O)Nc1ccc(Cl)cc1 (stereo not given),1.1,-1.9
NNC(=O)c1csc(CS(=O)(=O)c2ccc(Cl)cc2)n1,0.64,-0.4
CC1CC(C)(C)NC(=S)N1CCCC(=O)Nc1ccc2c(c1)OCCO2 (stereo not given),0.41,-0.08
CCc1nnc(NC(=O)c2ccc(OC)cc2OC)s1,1.7,-0.83
NC(=O)c1ccccc1N1CCCCC1,1.2,0.35
O=C(NCc1cccs1)C1CCN(C(=O)NCc2ccccc2)CC1,1.2,-0.46
O=C(Nc1ccc([N+](=O)[O-])cc1)c1cn(-c2ccccc2)nc1-c1cc2ccccc2o1,0.08,-0.2
CCOCCCNC(=O)c1ccc(CS(=O)(=O)Cc2ccc(C)cc2)o1,0.69,-0.31
O=C(COc1ccc(-c2nnco2)cc1)NC1CCCc2ccccc21 (stereo not given),0.58,-1
NC(=O)c1ccc(N2CCN(S(=O)(=O)c3ccccc3)CC2)c([N+](=O)[O-])c1,0.85,0.29

# Looked up above:
# Under KCNQ2 pot baseline, COc1cc2c(cc1OC)CN(CC(O)c1ccccc1)CC2 (stereo not given) is listed with 0.14
# Under KCNQ2 pot baseline, CCOCCCNC(=O)c1ccc(CS(=O)(=O)Cc2ccc(C)cc2)o1 is listed with -0.31
# Under KCNQ2 pot, NNC(=O)c1csc(CS(=O)(=O)c2ccc(Cl)cc2)n1 is listed with 0.64

# Continuation.
SMILES,KCNQ2 pot,KCNQ2 pot baseline
CC(=O)NC1=C(Nc2ccc(N(C)C)cc2)C(=O)c2ccccc2C1=O,0.41,-0.94
Nc1c(C(=O)NCc2ccccc2)c2nc3ccccc3nc2n1CCCN1CCOCC1,0.26,-0.67
COc1ccc(CNC(=O)c2sc(=S)n(-c3ccc(OC)cc3)c2N)cc1,1.3,-0.66
O=C(NC1CC2CCC(C1)N2C(=O)NC1CCCCC1)NC12CC3CC(CC(C3)C1)C2 (stereo not given),0.1,-0.26
CCN1C(=O)/C(=C2/C=Cc3ccccc3N2C)OC1=S,0.98,0.01
COc1ccccc1NS(=O)(=O)/C=C/c1ccccc1,1.2,0.25
COC(=O)CCSc1cc([N+](=O)[O-])cc2c1c(C1OCCO1)nn2-c1ccccc1,0.9,0
CC(C)(Oc1ccc(Cl)cc1)C(=O)NCc1n[nH]c(=O)c2ccccc12,1.6,-1.3
CN(C)/C=C1\C(=O)Nc2ccccc21,0.11,-0.64
COc1ccc(OCCOCC(O)CN2CCOCC2)cc1 (stereo not given),1.4,-0.11
CCN(CC)c1nc(N2CCN(C)CC2)nc2ccccc12,2.7,-1.3
CCOCc1nnc(NC(=O)COC)s1,0.82,-1.1
N#CC1CN(C(c2ccccc2)c2ccccc2)C1,0.62,-0.33
CSc1nc(N(C)C)nc(N(C#N)CCOC(C)=O)n1,0.04,0.14
CCOC(=O)C(=O)Nc1ccc(S(=O)(=O)N2CCOCC2)cc1OC,1.2,-1.1
CCSc1nc(C)nc2sc(C)c(C)c12,2,-0.1
CC(=O)Nc1ccc(C(=O)OCC(=O)c2cccc([N+](=O)[O-])c2)cc1,0.51,-0.24
Cn1c(SCC(=O)Nc2ccc(N3CCOCC3)cc2)nnc1-c1ccccc1,0.66,0.39
O=C(NC1CCN(C(=S)Nc2ccccc2Cl)CC1)C1CCCCC1,0.07,0.96
CCCc1nnc(NC(=O)CCC(=O)NC2CCCCC2)s1,0.05,-1.7
CC(C)(C)N1C(=O)[C@H]2[C@@H](c3ccc(Br)cc3)N3C(=O)N(c4cccc(Cl)c4)C(=O)[C@@]3(C)[C@H]2C1=O,2.6,-1.6
CCC(C)NC(=O)CN1C(=O)CSc2ccc(S(=O)(=O)N3CCCC3)cc21 (stereo not given),0.51,2.2
Cc1ccc(S(=O)(=O)Nc2cccc(C(=O)NCC(c3ccco3)N3CCCC3)c2)cc1F (stereo not given),0.07,0.42
COc1ccc(NC(=O)C/C(C)=N/NC(=O)C(=O)NC2CCCCC2)c(OC)c1,0.03,2
CCn1nc(C(=O)NNC(=O)COc2ccc(OC)cc2)c2ccccc2c1=O,1.2,0.07
Cc1ccc(-c2nnc(NC(=O)Cc3ccc(F)cc3)o2)c(C)c1,0.09,0.77
Cn1cc(C(=O)N/N=C/c2cccc(O)c2)ccc1=O,0.01,1.1
COC(=O)c1sc2cc(=O)n(-c3cccc(C(F)(F)F)c3)nc2c1O,0.25,0.47
CCC1CCCCN1CCCNC(=O)c1ccc2c(c1)c(C)c(C)n2CC (stereo not given),2.6,0.69
COc1ccc(CNC(=O)C(c2ccco2)N(C(=O)c2csnn2)c2cccc(C)c2C)cc1 (stereo not given),0.59,0.16
Cc1cccc(C)c1OC(=O)CSc1nnc(-c2ccccc2O)o1,0.52,1.5
CCCOc1ccc(-c2nc(C#N)c(N3CCN(C)CC3)o2)cc1,1.9,0.08
CCc1c(C)nc(N2CCN(Cc3ccccc3)CC2)[nH]c1=O,0.45,1.7
Cc1ccc(S(=O)(=O)NCCCCCC(=O)Nc2ccccn2)cc1,0.21,0.29
COc1cccc(CNC(=O)CCC2CCCN(C(=O)c3cc(C)[nH]n3)C2)c1 (stereo not given),1.4,1.2
O=C1C2C3CCC(C3)C2C(=O)N1c1ccc(OS(=O)(=O)c2ccccc2)cc1 (stereo not given),0.23,-1.4
COCCNC(=O)COCc1cc(-c2ccc3c(c2)OCO3)on1,1.4,0.45
O=C(N=C1N=C2C=CC(Br)=CN2Cc2ccccc21)c1ccc([N+](=O)[O-])cc1[N+](=O)[O-],0.16,-0.83
O=c1[nH]cc(I)cc1I,7.4*,0.02*
CCOC(=O)C1(Cc2ccc(Cl)cc2)CCN(C(=O)C2=NNC(=O)CC2)CC1,0.39,-1.3
N/C(Cc1ccc([N+](=O)[O-])cc1)=N\OC(=O)c1ccco1,1.9,-1.5
CSc1nc(-c2ccco2)nn1C(=O)c1ccc(C)cc1,1.4,0.34
C/C(=N\NC(=O)CNc1ccccc1Cl)C(C)(C)C,1.6,0.18
CCN(Cc1ccccc1)C(=O)Cn1c(=O)n(CC(=O)N2CCCCC2)c(=O)c2sccc21,0.27,-1.3
O=C(OCn1nnc2ccccc2c1=O)c1cc2ccccc2o1,1.9,-0.83
CCc1cccc(C)c1NC(=O)CN1CCN(S(=O)(=O)c2ccc(C(C)(C)C)cc2)CC1,5.3*,1.8*
O=C(Nc1ccc(OC(F)(F)F)cc1)C1CC(c2ccc(F)cc2)=NO1 (stereo not given),1.2,-1.1
CCc1ccc(NC(=O)CSCCO)cc1,0.6,0.15
CCOc1cc(N2CCOCC2)c(OCC)cc1NC(=O)c1ccc(S(C)(=O)=O)cc1,0.51,-0.17
O=C(CN1CCN(C(=O)c2ccccc2)CC1)Nc1ncc(Br)cc1Br,0.44,-0.67
CN(C)c1ccc(C(C(=O)NC(C)(C)C)N(C(=O)c2csnn2)C2CC2)cc1 (stereo not given),0.68,-0.97
CC(=O)N(CCN(C)C)c1nc2cc3c(cc2s1)OCCO3,0.55,0.64
CC(C)OC(=O)CN1C(=O)c2ccccc2C1=O,0.02,0.12
CCOc1ccccc1N1CCN(C(=O)NCc2ccc(C)cc2)CC1,0.39,-2
Cn1c(=O)[nH]c(=O)c2c1nc(SCCN1CCOCC1)n2CCCc1ccccc1,0.34,-0.19
CCOC(=O)CSc1nc2ccccc2c(=O)n1C,0.81,-1.6
COc1ccc(C2CC(c3ccccc3)=NN2C(=O)CSc2nccc(=O)[nH]2)cc1 (stereo not given),0.36,-0.65
O=C(Nc1ccccc1)Nc1n[nH]c2nnc(-c3ccccc3)c(-c3ccccc3)c12,0.01,2
CCOc1ccc(C(=O)NCCN(C)C)cc1,1.2,-0.79
CN1CCCC(OC(=O)c2ccc(C#N)cc2)C1 (stereo not given),0.01,1

# Random excerpt: three compounds from above.
SMILES,KCNQ2 pot,KCNQ2 pot baseline
C/C(=N\NC(=O)CNc1ccccc1Cl)C(C)(C)C,1.6,0.18
CCOc1ccc(C(=O)NCCN(C)C)cc1,1.2,-0.79
O=C(Nc1ccccc1)Nc1n[nH]c2nnc(-c3ccccc3)c(-c3ccccc3)c12,0.01,2

# Screens: PubChem, Johns Hopkins Ion Channel Center
